# Source: PubChem BioAssay
# ZTA counter – blocks Epstein-Barr virus ZTA, an EBNA-1 counter-screen; ZTA-DNA binding, fluorescence polarization; inhibition, % at 11 µM; P03206; hit rate 0.15% among 320,000; in the data active means inhibition above about 33%
# Target sequence (P03206 whole entry, looked up): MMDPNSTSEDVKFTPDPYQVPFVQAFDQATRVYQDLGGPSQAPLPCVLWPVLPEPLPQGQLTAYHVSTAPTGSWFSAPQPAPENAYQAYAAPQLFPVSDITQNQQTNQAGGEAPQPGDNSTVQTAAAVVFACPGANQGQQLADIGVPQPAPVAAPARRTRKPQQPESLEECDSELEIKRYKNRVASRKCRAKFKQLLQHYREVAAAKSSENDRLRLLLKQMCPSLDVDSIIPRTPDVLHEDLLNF
# GSTO1 inh – blocks human GSTO1 in RBBP9 counter-screen; P78417; recombinant GSTO1, activity-based probe fluorescence polarization; inhibition, % at 5.96 µM; hit rate 1.1% among 300,000;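 active means inhibition above the campaign mean inhibition plus 3 SD, cut at about 35% in these data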;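 further: 0% = GSTO1-1 with DMSO and 100% = wells lacking GSTO1-1 enzyme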
# PAFAH2 FP inh – PAFAH2 (human) inhibition; recombinant PAFAH2, FP-rhodamine activity probe, fluorescence polarization; inhibition, % at 3.39 µM; hit rate 0.99% among 340,000;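 active means inhibition above the mean over all tested compounds plus 3 SD, cut at about 30% in these data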;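 further: inhibitors block probe labeling of enzyme so polarization drops; 0% = enzyme with DMSO and 100% = wells lacking PAFAH2 protein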
# LYPLA2 counter – counter-screen for PME1 inhibitors: inhibitors of human LYPLA2 | hit rate 0.38% among 320,000 | AID 2177 | O95372 | inhibition, % at 5.9 µM | recombinant LYPLA2, FP-Rh probe fluorescence polarization;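 active means inhibition above the screen-wide mean plus 3 SD, limit set per campaign, cut at about 26% in these data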;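 further: 0% = LYPLA2 with DMSO and 100% = wells lacking LYPLA2 enzyme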
# PAFAH1B3 inh – PAFAH1B3 (human) inhibition | recombinant PAFAH1B3, FP-rhodamine probe, fluorescence polarization | inhibition, % at 3.39 µM | hit rate 0.28% among 340,000 | AID 492972;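 active means inhibition above the screen-wide average of all tested compounds plus 3 SD, cut at about 25% in these data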;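 further: 0% = enzyme with DMSO only and 100% = wells lacking PAFAH1B3 protein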
# PAD4 inh – inhibitors of human PAD4; Q9UM07; recombinant PAD4, RCA probe fluorescence polarization; inhibition, % at 6.36 µM; hit rate 0.41% among 330,000;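 active means percent inhibition above a cutoff equal to the mean of all tested compounds plus 3 SD, cut at about 15% in these data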;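 further: 0% = PAD4 with RCA probe and DMSO and 100% = probe without PAD4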
# Target sequence (Q9UM07 whole entry, looked up): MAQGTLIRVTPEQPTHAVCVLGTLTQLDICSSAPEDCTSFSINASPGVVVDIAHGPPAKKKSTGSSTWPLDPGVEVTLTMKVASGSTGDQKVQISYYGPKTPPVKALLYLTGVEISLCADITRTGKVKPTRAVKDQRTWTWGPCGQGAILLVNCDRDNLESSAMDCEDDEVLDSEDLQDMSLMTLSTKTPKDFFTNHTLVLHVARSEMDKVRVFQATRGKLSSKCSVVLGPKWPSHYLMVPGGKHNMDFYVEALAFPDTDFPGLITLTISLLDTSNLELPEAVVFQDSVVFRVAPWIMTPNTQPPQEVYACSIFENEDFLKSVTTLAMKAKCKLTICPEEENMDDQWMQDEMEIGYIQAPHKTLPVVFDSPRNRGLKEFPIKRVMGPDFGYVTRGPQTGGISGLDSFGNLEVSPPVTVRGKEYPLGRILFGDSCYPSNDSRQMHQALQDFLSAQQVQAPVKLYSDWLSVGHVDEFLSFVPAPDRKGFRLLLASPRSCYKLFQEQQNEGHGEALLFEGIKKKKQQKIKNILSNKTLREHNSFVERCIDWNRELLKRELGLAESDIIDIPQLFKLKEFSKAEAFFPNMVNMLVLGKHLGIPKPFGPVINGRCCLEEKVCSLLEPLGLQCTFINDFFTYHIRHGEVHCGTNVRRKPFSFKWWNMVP
# EBNA-1 inh – blocks EBNA-1 binding to DNA. EBNA-1 DNA binding, fluorescence polarization. inhibition, % at 14.8 µM. hit rate 0.34% among 300,000; in the data active means inhibition above about 28%
# LYPLA1 inh – blocks human lysophospholipase 1, a PME1 counter-screen; O75608; hit rate 0.16% among 320,000; inhibition, % at 5.9 µM; recombinant LYPLA1, FP-Rh probe fluorescence polarization; AID 2174;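 active means inhibition above the mean of all tested compounds plus 3 SD, set per campaign, cut at about 14% in these data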;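 further: inhibitors block serine hydrolase probe labeling of LYPLA1 so polarization falls; 0% = enzyme with DMSO and 100% = wells lacking LYPLA1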
# * marks the source's active call; other numbers are inactive results; / = no result given.
canonical_smiles | ZTA counter | GSTO1 inh | PAFAH2 FP inh | LYPLA2 counter | PAFAH1B3 inh | PAD4 inh | EBNA-1 inh | LYPLA1 inh
COc1ccc(NC(=O)CSc2nc3c(c(=O)n2-c2ccc(F)cc2)SCC3)cc1 | 8 | 3 | 4 | -1 | -5 | 0 | 3 | 0
COc1cc(/C=N/n2cnnc2)ccc1OCCOc1ccccc1 | 5 | -5 | -2 | 9 | 2 | 2 | 7 | 0
CN1CCN(c2nc3c(c(=O)[nH]c(=O)n3C)n2Cc2cccc3ccccc23)CC1 | -3 | 1 | 0 | 6 | 2 | 0 | 9 | 2
CN1CCN(C(=O)c2ccc3c(c2)NC(=O)/C(=C/c2ccccc2)S3)CC1 | -10 | -115 | 0 | 4 | 5 | -1 | 7 | 4
CCOC(=O)c1[nH]c2ccc(Br)cc2c1NC(=O)CCN1CCC(C)CC1 | -9 | 2 | 1 | -2 | -1 | -4 | 27 | 3
Cc1ccc(NC(=O)CSc2ccc(-c3ccco3)nn2)cc1 | 2 | 1 | 2 | -1 | 0 | 0 | 9 | -1
CC1C=CCC2C(=O)N(c3ccc(OC(=O)c4cccs4)cc3)C(=O)C12 (configuration not stated) | -36 | 0 | -10 | 0 | -3 | 0 | 6 | 4
CCOC(=O)N1CCN(C(=O)c2cc3c(s2)-c2ccc(Cl)cc2S(=O)(=O)C3)CC1 | 7 | 10 | 13 | 8 | 5 | -3 | -3 | -1
O=C(c1cc(S(=O)(=O)N2CCOCC2)ccc1Cl)N1CCC(Cc2ccccc2)CC1 | -6 | -2 | 11 | 18 | 0 | 2 | -5 | 1
CCC(=O)c1ccc(OC(=O)c2cccs2)cc1 | 3 | 5 | 12 | 0 | 5 | -1 | 4 | 1
O=C(O)Cn1cc(C(=S)N2CCCCC2)c2ccccc21 | -10 | 4 | 3 | 6 | 9 | -2 | -6 | 2
CCOC(=O)C1(CCc2ccccc2)CCN(Cc2cc(OC)c(OC)cc2OC)CC1 | -15 | 4 | 1 | -3 | 3 | -1 | -9 | -1
COc1cc(/C=C(\C#N)c2nc3ccccc3[nH]2)cc(OC)c1O | -6 | -27 | -26 | -32 | -9 | -18 | -14 | -10
Cc1cccc(N(C(=O)c2csnn2)C(C(=O)NC2CCCCC2)c2ccncc2)c1 (configuration not stated) | 6 | -6 | 16 | 4 | 1 | -4 | -16 | 2
Fc1ccc(-c2ccc(CNCc3ccccn3)o2)cc1 | 2 | 8 | 3 | 3 | 6 | -4 | 3 | -1
Cc1ccc(C(=O)NCCN2C3=NC[C@H](C)N3C[C@H]2Cc2ccc(O)cc2)cc1Br | 1 | -8 | 3 | -4 | 1 | -6 | -15 | 2
COc1cc(/C=N/NC(N)=O)ccc1OC(=O)c1ccco1 | -5 | 5 | -1 | -4 | 5 | 1 | -11 | 0
CC1CC(C)CN(CCCNC(=O)CCC(=O)N2CCOc3ccccc32)C1 (configuration not stated) | -6 | 0 | -4 | 4 | 11 | -4 | 0 | 4
Cc1ccc(/C=C2/Sc3ccc(C(=O)N4CCN(c5ccccn5)CC4)cc3NC2=O)cc1 | 10 | -53 | 5 | 3 | 4 | -2 | 2 | 0
Cc1c(C(=O)Nc2ccc(Cl)cc2)c2ccccn2c1C(=O)c1ccccc1 | 16 | -1 | 0 | 5 | 0 | 1 | 2 | -2
COc1ccc(OC)c(S(=O)(=O)Nc2ccc3[nH]c(=O)[nH]c3c2)c1 | -1 | -3 | -4 | -3 | 7 | 1 | -1 | 0
O=C(CN1CCN(c2ccccc2O)CC1)Nc1ccc([N+](=O)[O-])cc1Br | 8 | -3 | 5 | 6 | 2 | 1 | 5 | 1
Cc1ccc(NC(=O)CCC(=O)N2CCOc3ccccc32)c(Cl)c1 | 2 | 0 | 0 | 4 | -3 | -2 | -16 | 0
CCCC(=O)Nc1ccc(C(=O)n2ccc(C)n2)cc1 | -5 | 4 | 49* | 2 | -2 | -5 | 8 | 1
Cc1ccc(NC(=O)CSc2sc3c(O)cc(=O)[nH]c3c2C#N)cc1C | 3 | 1 | -7 | -20 | 1 | -3 | 0 | -19
CN(C)CCNc1nc2sc3c(c2c(=O)n1CCc1ccccc1)CCCCC3 | 8 | -1 | 8 | 0 | 4 | -5 | -9 | -2
COc1cc(/C=N/NC(=O)CN2CCCCC2)ccc1OCc1ccc(Br)cc1 | 14 | -2 | 4 | 2 | 5 | -2 | 1 | 0
COc1ccccc1/C=C/c1nc(S(=O)(=O)c2ccccc2)c(NCCN(C)C)o1 | -5 | 3 | 0 | 11 | 9 | -2 | -9 | -3
CCc1nnc(NC(=O)CSc2nnc(-c3ccoc3C)n2-c2cccc(C)c2)s1 | 15 | 4 | -3 | 1 | 2 | -2 | 6 | 0
CCc1ccc(C2CC(c3cccc(OC)c3)n3nc(N)nc3N2)cc1 (configuration not stated) | -3 | 6 | -1 | 0 | 5 | -2 | 6 | 2
Cc1ccccc1CS(=O)(=O)CCC(=O)NCCN1CCN(c2cccc(Cl)c2)CC1 | 10 | 8 | 3 | 17 | 1 | 6 | 10 | 14
COc1cccc(-n2c(SCC(=O)NCCc3ccccc3)nnc2-c2ccoc2C)c1 | -5 | 4 | 1 | 0 | 4 | -4 | -8 | 2
CCN(CC)CCn1c(=O)n(-c2ccc(Cl)cc2)c(=O)c2c3c(sc21)CN(C)CC3 | -7 | 3 | 14 | 7 | 9 | 4 | 1 | 3
CCN(CC)CCCNc1oc(/C=C/c2ccccc2)nc1C#N | -5 | -5 | / | -7 | / | 3 | -7 | -1
O=C(COC(=O)CCN1C(=O)c2ccccc2C1=O)Nc1ccccc1[N+](=O)[O-] | -2 | / | 9 | 11 | 0 | 1 | / | 7
O=C(COC(=O)C1CC(=O)N(Cc2ccco2)C1)c1ccc(OC(=O)c2ccccc2)cc1 (configuration not stated) | 12 | 4 | -8 | 3 | -5 | -2 | 1 | 4
COc1ccccc1CNC(=O)CSc1ccc(-c2ccccn2)nn1 | 1 | 6 | 3 | -7 | 1 | -7 | -8 | 0
Cc1cc(-c2n[nH]c(=S)n2/N=C/c2cccc(O)c2)n[nH]1 | -8 | 6 | 1 | 3 | 4 | 1 | 4 | 1
Cn1c(NCC(O)c2ccccc2)nc2c1c(=O)n(Cc1ccc(Cl)c(Cl)c1)c(=O)n2C (configuration not stated) | 8 | -2 | 11 | 5 | 9 | 3 | -7 | 0
O=C(C1=C(O)C(=O)N(CCN2CCOCC2)C1c1ccc([N+](=O)[O-])cc1)c1cc2ccccc2o1 (configuration not stated) | 12 | 2 | 9 | 7 | 5 | 1 | -5 | 1
Cc1c(C=O)c2ccccn2c1C(=O)c1cccs1 | -9 | 4 | 16 | -1 | -2 | -3 | -9 | 3
Cc1cccc(S(=O)(=O)C(C#N)c2nc3ccccc3nc2N2CCOCC2)c1 (configuration not stated) | -9 | 4 | -4 | 5 | 10 | -11 | 2 | 0
O=C(COC(=O)c1c(Cl)cccc1Cl)Nc1cccc(S(=O)(=O)NC2=NCCCCC2)c1 | -10 | / | 8 | 4 | 7 | -2 | / | 2
CC1Cc2nc(SCC(=O)Nc3ccc4c(c3)OCO4)n(Cc3ccccc3)c(=O)c2S1 (configuration not stated) | -16 | -1 | -5 | 3 | 10 | -2 | 0 | -4
COCCCN1C(=O)c2[nH]nc(-c3ccccc3O)c2C1c1ccc(Cl)cc1 (configuration not stated) | -7 | 1 | -5 | -3 | 5 | 1 | -3 | -4
Cc1ccc(Nc2cc(C(=O)NCCCN3CCOCC3)c3ccccc3n2)cc1C | -5 | -5 | 0 | 10 | 1 | 1 | 2 | 0
COC(=O)c1[nH]c2ccc(Cl)cc2c1NC(=O)CCN1CCOCC1 | -8 | 7 | 2 | 5 | -3 | 2 | -6 | 1
Cc1ccc(C2CC(c3ccc(Cl)cc3)n3nc(N)nc3N2)cc1 (configuration not stated) | -8 | -8 | 0 | -1 | 3 | -1 | 0 | -3
CCCOc1ccc(C(O)C(CN2CCOCC2)c2ccccc2)cc1 (configuration not stated) | 4 | 12 | -3 | 0 | -1 | 2 | -8 | -2
C/C=C(\C)C(=O)NCCN1C2=NC[C@@H](Cc3ccccc3)N2C[C@H]1Cc1ccc(O)cc1 | -20 | -1 | -1 | -3 | -2 | 1 | -7 | -2
O=C(C[C@H]1C/C=C/CC[C@@H](Cc2ccc(F)cc2)C(=O)OC[C@H](c2ccccc2)NC1=O)NCCO | / | / | 5 | / | 5 | 0 | / | /
CCc1cc(=O)oc2cc(OC(=O)c3ccco3)ccc12 | -9 | 6 | 3 | -4 | 8 | 1 | -5 | -1
CCc1cc(C(=O)c2ccc(OC)cc2)c(NC(=O)CN2CCCCC2)s1 | -1 | 1 | 1 | 1 | 4 | -4 | -2 | 0
CCOC(=O)/C(C#N)=C/c1ccc(OC(=O)c2ccco2)c(OCC)c1 | 0 | 0 | -4 | 5 | 3 | 2 | 0 | 0
CC(=O)c1ccc(OC(=O)c2cccs2)cc1 | 4 | 6 | 13 | 8 | 10 | -1 | 9 | -1
CC1CN(CCc2ccccc2)c2nc3c(c(=O)n(C)c(=O)n3C)n2C1 (configuration not stated) | 0 | 10 | -6 | 10 | 0 | -3 | -21 | 1
COC(=O)Cn1cc(/C=N/NC(=O)COc2cccc3cccnc23)c2ccccc21 | -12 | 2 | 6 | 7 | 3 | 2 | -4 | 6
O=C(O)C1CCN(S(=O)(=O)c2ccc(N3CCC(O)CC3)c([N+](=O)[O-])c2)CC1 | 7 | 7 | 7 | 2 | 4 | 2 | -1 | -1
CCN(CC)S(=O)(=O)c1cccc(C(=O)OCC(=O)NCc2ccccc2OC)c1 | 16 | -2 | 20 | 5 | 4 | 4 | 8 | 7
Brc1ccc(CNc2nc3ccccc3n2CCN2CCCCC2)cc1 | 7 | 7 | 7 | 4 | 3 | -2 | 4 | 4

# Additional results
canonical_smiles | ZTA counter | GSTO1 inh | PAFAH2 FP inh | LYPLA2 counter | PAFAH1B3 inh | PAD4 inh | EBNA-1 inh | LYPLA1 inh
CCOC(=O)Nc1ccc2c(c1)N(C(=O)CNC)c1ccccc1CC2 | -2 | 0 | 1 | 4 | 13 | -2 | 13 | -1
O=C(NCCc1ccccc1)c1ccc2c(c1)S(=O)(=O)c1ccccc1C2=O | -5 | 1 | 7 | 1 | 3 | -3 | 9 | -3
O=c1c2cc(N3CCOCC3)ccc2[nH]c(=S)n1Cc1ccc(Cl)cc1 | 4 | 14 | 4 | 11 | -2 | 7 | 3 | -2
Cc1ccc(CN2CCSc3ccc(C(=O)N4CCOCC4)cc32)cc1 | 2 | -4 | 5 | 0 | -1 | -1 | 2 | 5
COc1ccccc1-n1c(SCC(=O)Nc2cccc(C)c2)nc2c(c1=O)SCC2 | 24 | 3 | 7 | -1 | -1 | 0 | 1 | -1
Cc1nnc(N2CCC(C(=O)N3CCCCC3)CC2)c2nn(-c3ccc(Cl)cc3)c(C)c12 | -12 | -1 | 0 | 14 | -5 | 2 | -10 | 3
Cc1nonc1NC(=O)CSc1nnc(-c2ccoc2C)n1-c1cccc(Cl)c1 | -3 | 1 | -6 | -4 | 9 | 1 | -6 | -2
CCN1CCN(c2cc(C)c3cc(NC(=O)c4ccc(C)c(C)c4)ccc3n2)CC1 | 8 | -2 | -12 | 3 | 17 | -2 | -18 | 4
CCC1CCCCN1CCCNC(=O)CSc1nc2nc(C)c(Cc3ccc(C)cc3)c(C)n2n1 (configuration not stated) | 10 | 3 | 4 | 0 | 7 | -3 | -1 | 1
CN(c1ccc(C(=O)N2CCN(c3ccc(F)cc3)CC2)cc1)S(C)(=O)=O | -12 | -1 | -5 | 8 | 2 | -5 | -12 | -1
CCOc1ccc(-n2nc3c(SCCN4CCCC4)nnc(C)c3c2C)cc1 | 13 | -5 | -8 | -1 | 2 | 0 | -5 | 0
S=c1[nH]nc(-c2cccnc2)n1/N=C/c1ccccc1 | -13 | -1 | 5 | 5 | 7 | 4 | -2 | 1
COc1ccc(C(=O)Oc2ccc(/C=N/NC(=O)c3cccnc3)cc2OC)cc1 | -3 | / | -11 | -10 | -1 | 2 | / | -10
CCCCCn1c(N2CCC(Cc3ccccc3)CC2)nc2c1c(=O)[nH]c(=O)n2C | -3 | -2 | 2 | 8 | -3 | 0 | -4 | 0
Cn1c(=O)[nH]c(=O)c2c1nc(N1CCCCC1)n2CCCSc1nc2ccccc2s1 | 3 | 3 | 1 | 2 | -8 | 0 | -2 | 0

# A portion of the library (hit frequency here may not be typical).
